Sfp inh: Sfp phosphopantetheinyl transferase inhibition. Biochemical Sfp PPTase activity, qHTS. Potency, µM, inactives show max response, negative = inhibition, actives largely listed as inhibitors. 310,000 tested, 3.5% active; active means well fitted inhibition curve with a large enough effect; inconclusive means small, poorly fitted or top-dose-only effect, or another doubt; inactive means no such curve, though single readings can be large or run the other way;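 further: the enzyme is Sfp with the accession as filed and its product quenches rhodamine fluorescence; potency means the concentration at half of the fitted maximal effect; 0% = enzyme reaction without inhibitor and -100% = no enzyme wells; top concentration of the series not given in the record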
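Reaction rates are the 30-min fluorescence difference (ex 525, em 598 nm) in wells containing 15 nM Sfp, 5 uM rhodamine-CoA and 12.5 uM BHQ-2-YbbR at pH 7.6 with 10 mM MgCl2.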
TRPML1 inh: inhibitors of human TRPML1 channel | Q9GZU1 | TRPML1-inducible cells, Ca2+ dye fluorescence, FDSS; active compounds read low; inhibition of EC80 agonist-evoked calcium signal | activity change, negative = inhibition, % (no concentration beside the values) | 390,000 tested, 0.02% active | AID 624415; in the data active means activity change below about -50%; inconclusive means about -30% to -50%; inactive means above about -30%;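 further: stimulus is agonist 54-4 at its EC80 concentration; on the % scale 0 is the no-effect control and ±100 the full control effect; compound concentration not given in the record; the text of the record puts the active cut at -80%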
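TRPML1-DL cells, Tet-induced overnight (~16 h, 37 °C) at 1,500 cells/well, were loaded with Ca8 no-wash dye plus quencher for 45-90 min at room temperature. Compounds were pinned during FDSS kinetic reading; agonist 54-4 at EC80 (4 uM final) then added.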
gsp ag: gsp mutant agonism; gsp mutant cells, cAMP HTRF, 30 min; control for the full effect not named in the record; 340,000 tested, 0.13% active; Potency, µM (doses to about 76.9 µM), for inactives: top-dose activation (cAMP increase), usual class: activators; AID 624287; active = well fitted activation curve with a large enough effect; inconclusive = small, poorly fitted or top-dose-only effect, or another doubt; inactive = no such curve, though single readings can be large or run the other way; cell line not stated here;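 further: phosphodiesterase inhibitor Ro 20-1724 added with compounds to block cAMP breakdown; potency means the concentration at half of the fitted maximal effect; nearly all actives have a fitted effect of over 60% in size; about a fifth of the inactives were tested at one dose only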
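Cells in DMEM/10% FBS with G418 were pretreated with compounds in DMSO plus […] (300 uM stock) for 30 min at 37C. cAMP was measured by HTRF (cAMP-d2 plus anti-cAMP antibody-K) after 30 min at room temperature.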
ClpP mod: qHTS Assay for Activators of ClpP. 340,000 tested, 1.9% active. Potency, µM (series often up to 57.5 µM), for the others: at the highest dose activity change, negative = active. ATP-dependent Clp protease proteolytic subunit (Bacillus subtilis (strain 168)), P80244. purified B. subtilis ClpP, FRET peptide cleavage, 20 min. AID 651965, 2013; active = well fitted falling curve with a large enough effect; inconclusive = small, poorly fitted or top-dose-only effect; inactive = no such curve, though single readings can be large or run the other way; further: potency means the concentration at half of the fitted maximal effect; the source files actives as falling curves though it sought activators and does not explain the sign; nearly all actives have a fitted effect of over 65% in size; many hits overshoot -100%
Target sequence (P80244 whole entry, looked up): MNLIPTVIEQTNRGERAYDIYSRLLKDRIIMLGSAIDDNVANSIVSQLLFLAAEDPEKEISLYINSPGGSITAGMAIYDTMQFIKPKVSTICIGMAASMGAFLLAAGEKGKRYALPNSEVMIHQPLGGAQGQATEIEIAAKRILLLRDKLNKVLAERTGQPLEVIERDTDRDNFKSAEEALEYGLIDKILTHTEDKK
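FRET quenching reversal measured ClpP activation: 10 microg/mL B. subtilis ClpP at pH 8 with the FRET-FV decapeptide, read at 430 nm after 320 nm excitation. The 20-min minus 0-min signal was scaled between DMSO/no-enzyme wells and ADEP (5.8 microM final).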
TRPV1 PAM: potentiators of human vanilloid receptor 1 (TRPV1); Q8NER1; TRPV1-expressing cells, Fluo-8 calcium influx, capsaicin EC20 potentiation; host cell line not named in the record; control for the full effect not named in the record; potentiation, % at 8.33 µM; 320,000 tested, 0.02% active; AID 540277; active means potentiation above 80%; inconclusive means 30% to 80%; inactive means below 30%; further: 0% is about no effect
Target sequence (Q8NER1 whole entry, looked up): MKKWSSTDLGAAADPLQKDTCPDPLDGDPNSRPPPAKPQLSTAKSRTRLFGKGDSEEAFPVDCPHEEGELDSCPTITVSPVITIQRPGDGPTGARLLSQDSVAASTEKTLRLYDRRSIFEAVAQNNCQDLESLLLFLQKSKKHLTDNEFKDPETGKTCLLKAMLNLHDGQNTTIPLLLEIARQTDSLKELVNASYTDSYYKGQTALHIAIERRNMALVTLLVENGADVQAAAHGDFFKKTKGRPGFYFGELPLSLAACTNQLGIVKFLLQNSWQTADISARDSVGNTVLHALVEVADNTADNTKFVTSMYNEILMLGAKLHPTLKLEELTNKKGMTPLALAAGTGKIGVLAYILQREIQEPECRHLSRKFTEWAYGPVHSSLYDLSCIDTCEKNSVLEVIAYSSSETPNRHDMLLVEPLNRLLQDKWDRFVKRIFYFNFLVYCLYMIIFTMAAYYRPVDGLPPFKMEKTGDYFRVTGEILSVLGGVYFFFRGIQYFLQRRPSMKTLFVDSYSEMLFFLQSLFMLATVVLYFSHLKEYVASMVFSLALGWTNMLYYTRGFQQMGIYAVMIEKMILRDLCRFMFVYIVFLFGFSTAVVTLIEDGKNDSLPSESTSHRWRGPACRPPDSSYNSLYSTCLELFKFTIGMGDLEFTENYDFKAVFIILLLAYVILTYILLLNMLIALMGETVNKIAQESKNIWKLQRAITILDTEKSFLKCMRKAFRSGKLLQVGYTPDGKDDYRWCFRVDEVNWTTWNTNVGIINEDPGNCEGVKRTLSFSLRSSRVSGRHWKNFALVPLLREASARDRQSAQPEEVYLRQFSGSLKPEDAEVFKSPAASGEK
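TRPV1-expressing cells were cultured overnight at 35.5C and loaded with Fluo-8 calcium dye for 40 to 90 min at room temperature. After a 10 s baseline, compound was added and calcium influx was read kinetically for 3 min (ex 480/em 520 nm).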
Menin-MLL FL inh: displaces fluorescein MLL peptide from human menin; Fluorescence polarization, fluorescein-MLL peptide displacement from menin; FP activity change, % at 61.4 µM; 290,000 tested, under 10 active; AID 1766; inconclusive = falling polarisation curve, or a change in total fluorescence; inactive = total fluorescence flat and polarisation flat or rising; no compound was filed as active; the % refers to the polarisation; negative = inhibition;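 further: % of control where 0% means no effect; inhibitors lower the polarisation; unlabelled MLL peptide was the positive control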
gsp antag: antagonists of gsp mutant (McCune-Albright syndrome) | gsp-mutant cells, cAMP HTRF, 30 min; control for the full effect not named in the record | Potency, µM (titrated, usually from 76.9 µM), for the others: top-dose activity change, negative = inhibition, most hits filed as inhibitors | 340,000 tested, 0.4% active | AID 624288; active = falling curve of any shape with a large fitted effect; inconclusive = falling curve, mostly with a smaller effect; inactive = flat or rising curve; cell line not stated here;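 further: intracellular cAMP measured with PDE inhibitor Ro 20-1724 present during compound exposure; potency means the concentration at half of the fitted maximal effect; on the % scale 0 is the no-effect control and ±100 the full control effect; nearly all actives have a fitted effect of over 65% in size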
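G418-selected cells were plated in DMEM/10% FBS for 16-24 h at 37C, then treated with compounds plus the PDE inhibitor […] (300 uM solution added) for 30 min at 37C. Intracellular cAMP was measured by HTRF after 30 min lysis at room temperature.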
* = called active by the depositor; ? = inconclusive; . = no result given; [ ] = another dose, or the depositor's remark. Rows are unselected; any-hit rate near 4.9%.

SMILES | Sfp inh | TRPML1 inh | gsp ag | ClpP mod | TRPV1 PAM | Menin-MLL FL inh | gsp antag
Cc1ccc2c(c1)N(C(=O)CSc1nncn1C)C(C)(C)c1ssc(=S)c1-2 | -19.2% | -11.1 | 14.7% | -1.2% | -10.7 | 1.8 | -6.8%
Cc1c(C#N)c2ccccc2n1CC(=O)NCC1CCCO1 (configuration not stated) | 3.1% | -3.1 | 16.2% | -2.3% | -5.4 | -2.4 | 13.4%
Cc1c(NCc2cc(Cl)ccc2O)c(=O)n(-c2ccccc2)n1C | 7.3% | -25.9 | ? | -5.1% | -1.3 | 6.6 | -5.5%
O=S(=O)(CCSc1nc2ccccc2o1)c1nc2ccccc2s1 | 9.0% | 8.4 | -11.6% | 0.0% | -4.1 | 1.5 | -4.0%
O=C1C(=O)N(CCCN2CCOCC2)C(c2cccs2)/C1=C(/O)c1ccc2c(c1)OCO2 (configuration not stated) | 8.6% | . | . | . | -3.0 | 1.2 | .
COc1ccccc1-c1nc(C#N)c(N2CCC(C(N)=O)CC2)o1 | 15.4% | 3.5 | ? | -24.1% | 5.0 | 2.7 | 1.2%
Cc1cccc(C)c1NC(=O)C(C)Sc1nnc(C)n1CC1CCCO1 (configuration not stated) | -3.8% | -7.7 | 0.6% | . | -23.2 | 1.5 | 1.7%
Cc1nn(C)cc1C(C)NCc1c(C(=O)N2CCCCCCC2)nc2ccc(Cl)cn12 (configuration not stated) | 0.4% | 2.6 | ? | -8.6% | 8.5 | 0.8 | -1.6%
CCOc1ccc(-c2nc(C#N)c(NCC3CCCO3)o2)cc1 (configuration not stated) | -4.5% | 1.4 | 16.3% | -33.7% | -2.2 | 5.6 | -18.4%
CCNc1nc(NC(C)C)nc(N(C)C#N)n1 | -5.0% | . | -11.2% | -2.0% | 5.5 | -0.9 | -9.3%
CC1(C2CC2)NC(=O)N(CC(=O)Nc2ccc(SC(F)F)cc2)C1=O (configuration not stated) | . | 1.0 | -19.9% | . | . | . | 3.1%
O=C(NNC(=O)C(O)(c1ccccc1)c1ccccc1)C1CC1 | 17.6% | 10.6 | 5.2%[15.4 µM] | -2.1% | 1.5 | 0.5 | 10.6%
CCN1CCN(C(=O)CCN2C(=O)c3ccccc3C2=O)CC1 | -1.6% | 9.0 | -15.5%[15.4 µM] | . | ? | -6.7 | -1.3%
Cc1ccc(C(=O)O)cc1S(=O)(=O)N1CCC(C(=O)O)CC1 | 6.3% | -7.0 | 2.0% | -0.8% | 2.1 | 3.7 | -3.6%
COCCN(C(=O)CSCC(=O)Nc1ccc(C)cc1)c1c(N)n(CC(C)C)c(=O)[nH]c1=O | . | -10.1 | -2.8% | 1.8% | -3.6 | . | 14.1%
COC(=O)c1ccccc1NC(=O)C1CC(=O)N(c2ccc(F)cc2)C1 (configuration not stated) | 20.5% | 15.8 | -13.8% | -11.2% | 2.2 | 0.6 | 6.6%
C[C@@H]1CC2OC(=O)[C@@]3(C)C(=O)CC[C@@](C)(C23)[C@@]1(O)CCc1ccoc1 (some centres not stated) | 9.0% | -5.9 | -27.4% | . | 5.1 | 4.1 | 8.1%
CCN1C(=O)[C@H]2[C@@H](c3ccc(C)cc3)N3C(=O)N(c4cccc(F)c4)C(=O)[C@@]3(CC)[C@H]2C1=O | 3.9% | -28.2 | 23.5% | 0.6% | -12.6 | -9.2 | 1.0%
Cn1c(=O)c2c(nc(NCCNC(=O)c3ccco3)n2Cc2ccc(Cl)cc2Cl)n(C)c1=O | 15.8% | 20.0 | 3.0% | -0.3% | 14.9 | 0.1 | -3.1%
Oc1ccc(/C=N/N(Cc2ccccc2)c2ccccc2)cc1 | 14.4% | -9.7 | -0.5%[15.4 µM] | -0.4% | -10.0 | -0.9 | ?
CCCCc1nnc(SCCSc2nnc(CCCC)n2N)n1N | 5.0% | -13.7 | 21.7% | -0.7% | -5.8 | 3.3 | 11.5%
CCn1c(=O)n(-c2ccc(Cl)cc2)c(=O)c2c3c(sc21)COC(C)(C)C3 | -2.9% | -9.0 | 16.5% | -3.7% | -18.2 | 2.3 | -10.2%
Cc1cccc(Nc2cc(=O)[nH]c(=O)[nH]2)c1 | -6.7% | 0.3 | -2.9% | -3.4% | 5.2 | -1.6 | 3.3%
O=C(COC(=O)C1CC2CCCC(C1)C2=O)NC1CCCCC1 (configuration not stated) | . | -2.6 | 20.8% | 0.5% | 0.6 | . | 10.6%
CCOc1ccc2c(c1)c(N=NC(N)=S)c(O)n2C | -12.2% | -0.1 | 22.7% | -0.2% | -9.1 | 0.2 | -6.2%
CCOc1ccc(NS(=O)(=O)c2cc3c4c(c2)CCN4C(=O)CC3)cc1 | . | 38.7 | -44.5%[inhibitor] | -1.5% | 3.5 | . | -8.7%
Cc1nc2nc(-c3ccco3)[nH]n2c(=O)c1Cc1ccccc1 | -2.9% | 6.1 | -26.3% | 28.2µM* | 29.0 | 2.4 | -0.6%
O=C(Cn1c(=O)n(Cc2ccco2)c(=O)c2ccccc21)NCC1CCCO1 (configuration not stated) | 11.1% | 10.2 | -10.1% | 0.7% | -27.9 | -1.3 | 15.4%
Cc1ccc(S(=O)(=O)NC(C)C(=O)N2CCOCCOCCOCCOCC2)cc1 (configuration not stated) | 29.5% | -2.8 | -3.7%[15.4 µM] | . | 15.4 | 2.1 | 25.1%
O=P(c1ccccc1)(c1ccccc1)c1ccccc1C(Br)Br | . | -20.5 | -8.2% | -3.3% | . | . | .

The closing four entries of the section before open the next one.
SMILES | Sfp inh | TRPML1 inh | gsp ag | ClpP mod | TRPV1 PAM | Menin-MLL FL inh | gsp antag
Cc1nc2nc(-c3ccco3)[nH]n2c(=O)c1Cc1ccccc1 | -2.9% | 6.1 | -26.3% | 28.2µM* | 29.0 | 2.4 | -0.6%
O=C(Cn1c(=O)n(Cc2ccco2)c(=O)c2ccccc21)NCC1CCCO1 (configuration not stated) | 11.1% | 10.2 | -10.1% | 0.7% | -27.9 | -1.3 | 15.4%
Cc1ccc(S(=O)(=O)NC(C)C(=O)N2CCOCCOCCOCCOCC2)cc1 (configuration not stated) | 29.5% | -2.8 | -3.7%[15.4 µM] | . | 15.4 | 2.1 | 25.1%
O=P(c1ccccc1)(c1ccccc1)c1ccccc1C(Br)Br | . | -20.5 | -8.2% | -3.3% | . | . | .
COc1ccc(F)cc1S(=O)(=O)N1CC(C)CC(C)C1 (configuration not stated) | 18.0% | 10.5 | -4.2% | 4.2% | -7.5 | 3.6 | -24.6%
O=C(CSc1nnc(Cc2ccccc2)n1-c1ccccc1)NNC(=O)Cc1ccccc1 | 27.7% | -0.3 | ? | 0.4% | . | -1.6 | -5.0%
COc1ccc(-c2c(O)c(C#N)c(-c3ccccc3)n(-c3ccc(OC)cc3)c2=O)cc1 | 19.6% | 13.1 | 12.8% | -1.1% | -13.8 | ? | -5.9%
CC(OC(=O)CN1C(=O)NC(C)(C)C1=O)C(=O)c1ccccc1 (configuration not stated) | 4.6% | -3.8 | ? | -0.6% | ? | 3.3 | -2.0%
Cc1ccc(NC(=O)Cn2c(O)c(N=NC(=O)c3cc([N+](=O)[O-])ccc3O)c3ccccc32)cc1 | 13.6% | . | . | . | 11.3 | -0.9 | .
CCOC(=O)C1CCN(c2c(NCc3ccc(C(=O)Nc4ccc(C)cc4)cc3)c(=O)c2=O)CC1 | 0.3% | 4.3 | -9.6% | -2.1% | 0.4 | 1.6 | -14.8%
N#C/C(=C(/O)c1ccc(-c2cccc([N+](=O)[O-])c2)o1)c1nc2ccccc2s1 | 35.5µM* | 18.3 | -1.6% | . | 18.6 | ? | -4.6%
CC(C)(C)C(CCl)C(=O)NN=C(c1ccccc1)c1ccccc1 (configuration not stated) | . | 12.1 | ? | -0.2% | -1.2 | . | 11.8%
Cc1cc(C)n(CCc2nc(-c3ccco3)cs2)n1 | 8.91µM* | 6.4 | 15.2% | 0.7% | 8.4 | ? | -13.6%
O=S(=O)(/N=C(/Nc1nc2ccccc2s1)c1ccccc1)c1ccc(F)cc1 | . | -13.6 | ? | 1.0% | -23.0 | . | ?
O=C(Nc1ccc(-c2nc3cc(Cl)ccc3o2)cc1)C1CCCO1 (configuration not stated) | 3.4% | -2.6 | 3.1% | 28.2µM* | 6.1 | -0.4 | 3.1%
O=C(NCc1ccc(Cl)cc1)c1ccc(OCC2CCCO2)cc1 (configuration not stated) | 3.5% | -0.8 | 17.8% | -0.6% | -16.6 | 1.9 | 8.5%
O=C1CC(c2cccs2)Cc2nc(NCC3CCCO3)ncc21 (configuration not stated) | 5.3% | 1.3 | -7.7% | -4.1% | 27.5 | 0.2 | -0.7%
O=C(Cn1cccc1)Nc1ccc(OC(F)(F)F)cc1 | 11.8% | -4.2 | -12.2% | -2.1% | -5.4 | 0.4 | 8.1%
COc1ccc([C@H]2N[C@]3(CCCN(CC4CCCCC4)C3=O)[C@H]3C(=O)N(Cc4ccccc4)C(=O)[C@@H]23)cc1 | . | -12.7 | -9.1% | -1.7% | . | . | .
COc1cccc(Nc2nc(C)nc3c2oc2ccccc23)c1 | -16.9% | -6.8 | 1.4% | . | -5.9 | 5.1 | -6.1%
COC(=O)CCCNC(=O)c1ccc2nc(Cc3ccc(OC)cc3)oc2c1 | 8.9% | -5.2 | -5.3% | 0.0% | 3.0 | -1.6 | -5.9%
COc1ccc(Nc2ccc([N+](=O)[O-])cn2)cc1 | 13.3% | 36.0 | -19.6%[15.4 µM] | -1.9% | 22.9 | 1.4 | 7.3%
O=C(CNc1ccc(F)cc1)N/N=C/c1c(O)ccc2ccccc12 | 5.6% | -2.8 | ? | -2.5% | -5.2 | 19.2 | -1.5%
Cc1ccc(-c2noc(CCC(=O)NCC3CCCO3)n2)cc1 (configuration not stated) | -0.3% | 7.6 | -4.0% | -0.3% | 2.1 | 3.9 | -4.2%

Bioassay records (PubChem)
